Compound activity from PubChem.
gsp ag: gsp mutant agonism; gsp mutant cells, cAMP HTRF, 30 min; control for the full effect not named in the record; Potency, µM (top dose mostly 76.9 µM), for inactives: at the highest dose activation (cAMP increase), actives largely listed as activators; actives 0.13% (n = 340,000); active = well fitted activation curve with a large enough effect; inconclusive = small, poorly fitted or top-dose-only effect, or another doubt; inactive = no such curve, though single readings can be large or run the other way; cell line not stated here;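 also: phosphodiesterase inhibitor Ro 20-1724 added with compounds to block cAMP breakdown; potency is read from the fitted curve at half-maximal effect; nearly all actives have a fitted effect of over 60% in size; about a fifth of the inactives were tested at one dose only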
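Cells stably selected in G418 were plated at 2000/well, grown 16-24 hr, then given compounds in DMSO with the PDE inhibitor […] (300 uM solution added) for 30 min at 37C; cAMP was read by HTRF.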
Menin-MLL FL inh: menin-MLL binding inhibition, fluorescein peptide; 290,000 tested, under 10 active; Fluorescence polarization, fluorescein-MLL peptide displacement from menin; FP activity change, % at 61.4 µM; AID 1766; inconclusive = falling polarisation curve, or a change in total fluorescence; inactive = total fluorescence flat and polarisation flat or rising; no compound was filed as active; the % refers to the polarisation; negative = inhibition;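 also: % of control where 0% means no effect; inhibitors lower the polarisation; unlabelled MLL peptide was the positive control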
gsp antagonist: gsp mutant antagonism | gsp-mutant cells, cAMP HTRF, 30 min; control for the full effect not named in the record | actives 0.4% (n = 340,000) | Potency, µM (highest dose often 76.9 µM), for the others: at the top dose activity change, negative = inhibition, actives largely listed as inhibitors; active = falling curve of any shape with a large fitted effect; inconclusive = falling curve, mostly with a smaller effect; inactive = flat or rising curve; cell line not stated here;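 also: intracellular cAMP measured with PDE inhibitor Ro 20-1724 present during compound exposure; potency is read from the fitted curve at half-maximal effect; % is scaled to controls: 0 for no effect and ±100 for the full control effect; nearly all actives have a fitted effect of over 65% in size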
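G418-selected cells were plated in DMEM/10% FBS for 16-24 h at 37C, then treated with compounds plus the PDE inhibitor […] (300 uM solution added) for 30 min at 37C. Intracellular cAMP was measured by HTRF after 30 min lysis at room temperature.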
ClpP mod: qHTS Assay for Activators of ClpP; AID 651965, 2013; purified B. subtilis ClpP, FRET peptide cleavage, 20 min; actives 1.9% (n = 340,000); ATP-dependent Clp protease proteolytic subunit (Bacillus subtilis (strain 168)), P80244; Potency, µM (doses to about 57.5 µM), for the others: at the top dose activity change, negative = active; active = well fitted falling curve with a large enough effect; inconclusive = small, poorly fitted or top-dose-only effect; inactive = no such curve, though single readings can be large or run the other way; also: potency is read from the fitted curve at half-maximal effect; the source files actives as falling curves though it sought activators and does not explain the sign; nearly all actives have a fitted effect of over 65% in size; many hits overshoot -100%
Target sequence (P80244 whole entry, looked up): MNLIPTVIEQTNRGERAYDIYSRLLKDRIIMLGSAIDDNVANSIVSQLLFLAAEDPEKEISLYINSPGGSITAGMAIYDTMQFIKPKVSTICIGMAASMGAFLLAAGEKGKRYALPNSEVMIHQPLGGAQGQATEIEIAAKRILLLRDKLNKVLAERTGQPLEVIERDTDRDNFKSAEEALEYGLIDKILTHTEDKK
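FRET quenching reversal measured ClpP activation: 10 microg/mL B. subtilis ClpP at pH 8 with the FRET-FV decapeptide, read at 430 nm after 320 nm excitation. The 20-min minus 0-min signal was scaled between DMSO/no-enzyme wells and ADEP (5.8 microM final).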
TRPML1 agonist: agonists of human TRPML1 channel. Q9GZU1. TRPML1-expressing cells, Ca2+ dye fluorescence, FDSS; host cell line not named in the record; reference of the full effect not given here. activation, % (test concentration not listed). actives 0.12% (n = 410,000); in the data active = activation above about 50%; inconclusive = about 30% to 50%; inactive = below about 30%; also: 0% is about no effect; the text of the record puts the active cut at 80%
Target sequence (Q9GZU1 whole entry, looked up): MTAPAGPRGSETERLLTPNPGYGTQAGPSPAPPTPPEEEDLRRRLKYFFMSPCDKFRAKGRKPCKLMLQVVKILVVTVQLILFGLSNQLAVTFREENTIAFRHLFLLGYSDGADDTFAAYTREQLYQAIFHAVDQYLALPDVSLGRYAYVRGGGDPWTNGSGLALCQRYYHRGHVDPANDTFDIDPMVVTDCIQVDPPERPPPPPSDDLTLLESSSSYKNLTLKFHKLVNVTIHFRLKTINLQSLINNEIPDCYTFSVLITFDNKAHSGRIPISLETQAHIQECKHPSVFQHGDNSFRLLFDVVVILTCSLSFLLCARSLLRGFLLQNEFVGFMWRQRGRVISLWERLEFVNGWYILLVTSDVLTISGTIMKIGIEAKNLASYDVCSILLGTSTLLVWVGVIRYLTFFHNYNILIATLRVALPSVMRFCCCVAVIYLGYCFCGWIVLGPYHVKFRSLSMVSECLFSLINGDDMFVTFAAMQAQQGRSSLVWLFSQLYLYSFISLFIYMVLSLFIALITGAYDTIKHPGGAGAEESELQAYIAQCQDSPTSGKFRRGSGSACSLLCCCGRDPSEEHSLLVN
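Tet-induced TRPML1-DL cells, 1,500 per well, cultured overnight, were loaded with a no-wash Ca2+ dye for 45–90 min. Calcium fluorescence was recorded on the FDSS for 110 s after compound addition, before the EC80 agonist (4 uM 54-4) was added.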
TRPML1 blocker: human mucolipin-1 channel inhibition; Q9GZU1; TRPML1-inducible cells, Ca2+ dye fluorescence, FDSS; active compounds read low; inhibition of EC80 agonist-evoked calcium signal; activity change, negative = inhibition, % (concentration not given with the values); actives 0.02% (n = 390,000); in the data active means activity change below about -50%; inconclusive means about -30% to -50%; inactive means above about -30%;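 also: stimulus is agonist 54-4 at its EC80 concentration; % is scaled to controls: 0 for no effect and ±100 for the full control effect; the text of the record puts the active cut at -80%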
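TRPML1-DL cells, Tet-induced overnight (~16 h, 37 °C) at 1,500 cells/well, were loaded with Ca8 no-wash dye plus quencher for 45-90 min at room temperature. Compounds were pinned during FDSS kinetic reading; agonist 54-4 at EC80 (4 uM final) then added.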
Active calls of the source: *; ? = inconclusive; / = no result given; & = joins results of further samples; [ ] = dose if it differs, or a comment.

The opening two records, to show the layout:
SMILES	gsp ag	Menin-MLL FL inh	gsp antagonist	ClpP mod	TRPML1 agonist	TRPML1 blocker
Cc1cc(C)c(NC(=O)CN2CCN(c3ccccn3)CC2)c(C)c1	1.9%	-1.0	5.1%	/	-0.6	13.1
O=C1Nc2ccccc2/C1=N/N=C/c1cccc(O)c1	1.9%[15.4 µM]	-0.2	-10.6%	/	1.4	13.8

The listing (from the top)
SMILES	gsp ag	Menin-MLL FL inh	gsp antagonist	ClpP mod	TRPML1 agonist	TRPML1 blocker
Cc1cc(C)c(NC(=O)CN2CCN(c3ccccn3)CC2)c(C)c1	1.9%	-1.0	5.1%	/	-0.6	13.1
O=C1Nc2ccccc2/C1=N/N=C/c1cccc(O)c1	1.9%[15.4 µM]	-0.2	-10.6%	/	1.4	13.8
CC(=O)Nc1ccc(C(=O)OCc2ccccc2Br)cc1	-24.8%	-2.1	5.6%	/	-0.8	-6.0
CCCCNc1nc(Cl)nc(Nc2ccc(C)cc2)n1	-24.9%[15.4 µM]	/	11.5%	/	-1.2	-13.7
N=C1C(c2nc3ccccc3s2)=C(O)CN1NC(=O)c1c[nH]c2ccccc12	?	-2.9	9.0%	/	-0.2	10.7
CCOc1ccc(NC(=O)c2cccc(S(=O)(=O)NCc3cccnc3)c2)cc1	-105.5%[inhibitor]	/	/	-1.9%	-0.4	22.7
COc1ccc(O)c(/C=N/n2c(-c3ccco3)csc2=Nc2cccnc2)c1	17.0%	2.8	6.4%	0.4%	0.7	-12.1
O=C(C1CCCN(c2ncnc3c2nc2n3CCCCC2)C1)N1CCN(c2cccc(Cl)c2)CC1 (centres undefined)	-31.4%	1.6	?	-0.7%	2.8	36.5
NC(=O)C1(N2CCCCC2)CCN(Cc2ccc(Br)cc2)CC1	-13.2%	2.6	-4.0%	0.7%	0.4	-14.1
COc1ccc(-c2oc3ncn4nc(COc5cccc(C)c5C)nc4c3c2-c2ccc(OC)cc2)cc1	/	/	/	-11.7%	2.0	76.3
CN(C)CCSc1nnc(-c2ccccc2)o1	-10.4%	0.8	12.8%	-2.6%	0.5	4.7
COc1ccc(CC(=O)Nc2cc(C)c3c(=O)oc4ccccc4c3n2)cc1	-11.5%	-0.4	3.3%	-8.3%	-0.6	1.6
CSc1nc(N)nc2c1ncn2CC(=O)NCc1ccc2[nH]ccc2c1	/	/	4.7%	-15.9%	-0.8	-5.9
CCOc1ccc(NC(=O)C2CC(=O)OC2c2ccccc2)cc1 (centres undefined)	-0.8%[15.4 µM]	-1.5	12.8%	/	-0.9	0.7
CC(C)CNC(=O)COCc1cc(-c2ccc3c(c2)OCO3)on1	-2.9%[15.4 µM]	-2.6	7.0%	1.3%	-1.3	-0.6
Cc1cccc(OCC(=O)NC(=S)Nc2ccccc2N2CCOCC2)c1C	-10.9%[15.4 µM]	0.6	7.7%	-6.4%	0.4	4.2
O=C(c1c[nH]c2ccccc12)N1CCOCC1	-3.0%[15.4 µM]	4.3	9.0%	/	0.0	9.6
O=C(NC1(C(F)(F)F)C(=O)Nc2c1c(=O)[nH]c(=O)n2-c1ccccc1)c1cccnc1 (centres undefined)	17.9%	0.1	6.3%	-3.3%	-0.1	-7.4
O=C(Nc1ccccc1F)c1oc2ccccc2c1NC(=O)C12CC3CC(CC(C3)C1)C2	/	/	/	-3.2%	-0.6	32.1
O=C(Nc1cccc(-c2ccc(F)cc2)c1)C1CCCN(C(=O)c2cscn2)C1 (centres undefined)	-14.6%	/	-16.8%	-2.5%	-0.7	-13.4
CCN1CCN(C(=S)c2ccc(Cl)cc2)CC1	2.7%	2.9	23.6%	2.1%	0.4	-5.5
Cc1ccc(Nc2nc(COC(=O)COc3ccc(C=O)cc3)cs2)cc1	-5.4%[15.4 µM]	7.3	-23.1%	1.4%	1.5	6.1
Cc1cc2oc(C(=O)NC3CCS(=O)(=O)C3)c(C)c2cc1C (centres undefined)	-24.0%	0.8	7.2%	28.2µM*	-0.4	6.6
CCN(CC)S(=O)(=O)c1ccc2c(c1)N(CC(=O)NCCN1CCOCC1)C(=O)CO2	-7.1%	/	-1.2%	-5.2%	0.6	-11.3
CCCCNC(=O)Nc1nnc(-c2ccc(Cl)cc2)o1	-25.8%	0.6	10.6%	?	0.3	10.1

Continued:
SMILES	gsp ag	Menin-MLL FL inh	gsp antagonist	ClpP mod	TRPML1 agonist	TRPML1 blocker
COc1ccccc1NC(=O)c1ccc[n+]([O-])c1	14.6%	-0.5	2.8%	-2.3%	/	/
CSc1ccc(S(=O)(=O)NCCCOC(C)C)cc1	11.6%[15.4 µM]	0.7	-2.1%	/	-1.0	-1.3
Cc1ccnc(NC(=O)CCC(=O)N(CC(=O)NC2CCCCC2)Cc2ccccc2)c1	-27.4%[15.4 µM]	5.0	5.9%	/	-0.1	-29.5
Cc1ccc(OCc2ccc(C(=O)N3CCOCC3)cc2)cc1C	-6.3%	1.0	-15.5%	0.0%	0.7	-15.9
COc1ccc(C(C)(C)C)cc1NC(=O)c1cncc(Br)c1	-38.6%[inhibitor]	-0.8	-4.3%[15.4 µM]	1.0%	1.4	-10.0
Cc1ccc(C)c(SCC(=O)NNC(=O)c2csc(N3CCOCC3)n2)c1	0.1%	/	-1.7%	-12.3%	0.0	-6.3
N#CCC1c2ccccc2CCN1C(=O)Nc1ccc(C(F)(F)F)cc1 (centres undefined)	5.8%	-0.8	-15.1%	0.8%	1.8	-0.5
c1ccc(-c2cn(-c3ccccc3)c3[n+]2CCCS3)cc1	-2.8%[15.4 µM]	4.0	15.1%	0.7%	0.1	-7.6
COc1cc2c(cc1OC)C(C(N)=O)NCC2 (centres undefined)	-13.4%	/	-4.5%	-3.6%	0.7	0.4
Brc1ccc(-c2nnc(-c3ccc4c(c3)OCO4)o2)o1	-1.8%	1.2	?	?	0.8	7.9
CCC(C)(C)C(=O)O	/	/	5.9%	-0.1%	-0.4	1.4
COc1ccc(OC)c(C(=O)COC(=O)COc2ccccc2)c1	-0.2%[15.4 µM]	/	-5.6%	-1.0%	-0.7	-14.3
CC(=O)c1ccc(S(=O)(=O)NC2CC2)cc1	-4.7%	0.2	15.8%	/	-0.1	-13.0
CC(C)c1ccccc1NC(=S)N1CCN(S(=O)(=O)c2cccs2)CC1	2.4%	0.9	-7.8%	/	0.7	-1.5
O=C(c1ccccc1Cl)N1CCC(n2cccc2)CC1	-4.6%[15.4 µM]	1.7	1.7%	-15.6%	0.1	0.9
C=CCn1c(NC(=O)c2ccc(C)cc2)c(C#N)sc1=N	-14.0%	-3.0	11.9%	10.3%	-0.7	-9.4
CCc1cccc(CC)c1NC(=O)Cn1c(-c2ccc(F)cc2)noc1=O	-20.5%[15.4 µM]	-2.3	/	/	-0.6	-0.5
Cc1ccc(Sc2oc(/C=N/n3cnnc3)cc2Br)cc1	1.0%	1.4	4.8%	-29.7%	1.7	15.9
Cc1ccc2nccc(C(=O)N3CCCC(Nc4ccc(F)cc4)C3)c2c1 (centres undefined)	-23.7%	-1.8	0.3%	-0.6%	0.7	21.4
CCOC(=O)C1=CC[C@@H](c2ccccc2)N(S(=O)(=O)c2ccc(C)cc2)[C@H]1c1ccc(CC)cc1	/	/	/	0.4%	-0.4	54.2
CCOC(=O)CN1NC2(CCC(C)CC2)NC1=S (centres undefined)	?	6.0	2.8%	0.0%	0.0	1.9
CC(=O)Nc1ccc(S(=O)(=O)N(Cc2ccccc2)c2ccccc2)cc1	-7.2%[15.4 µM]	-0.3	-1.4%	/	-0.5	-8.2
Cc1cccc(CCNC(=O)c2nnc(Cc3ccc(Cl)cc3)o2)c1	23.9%	3.5	6.3%	1.5%	0.7	-17.2
COc1ccc(NC(=O)c2cccc(NC(=O)C3C4CC5OC(=O)C3C5C4)c2)c(OC)c1 (centres undefined)	-0.9%	-4.5	6.6%	-1.3%	-0.2	22.7
COc1ccc(/C(N)=N/OC(=O)CCCc2ccccc2)cc1OC	-14.0%	3.5	1.9%	-0.4%	6.2	-17.0

More structures follow.
SMILES	gsp ag	Menin-MLL FL inh	gsp antagonist	ClpP mod	TRPML1 agonist	TRPML1 blocker
C/C(CC(=O)NC1CCCCCC1)=N\NC(=O)c1cnccn1	-15.1%[15.4 µM]	-2.9	19.8%	1.4%	0.4	-10.6
COc1ccc(C(=O)NCC(=O)OCC(=O)NCc2ccco2)cc1	2.7%	/	-4.8%	-0.3%	-1.1	-1.2
O=C(COC(=O)CCCOc1ccc(Cl)cc1Cl)NCc1ccc(F)cc1	-5.3%[15.4 µM]	5.7	9.7%	-0.4%	-0.3	1.3
Cc1cc(C)c(S(=O)(=O)N2CCN=C2c2ccccc2)cc1C	-2.1%	1.4	-23.9%	-1.8%	0.1	-29.5
CCN(CC)C(=O)c1cc(C(C)(C)C)c(O)c(C(C)(C)C)c1	-1.6%[15.4 µM]	4.4	10.7%	-0.4%	1.7	13.7
O=C(COC(=O)c1ccc(NS(=O)(=O)c2ccc3c(c2)OCCO3)cc1)NCC1CCCO1 (centres undefined)	?	4.6	-19.6%	-2.9%	-0.3	21.7
CCc1ccccc1OCC(=O)N(CC)CC(=O)NCc1ccc(F)cc1	-23.6%	2.2	-3.9%	0.9%	1.0	-25.4
Cc1ccccc1NC(=O)Cn1c(=O)n(Cc2ccco2)c(=O)c2cccnc21	/	/	/	-3.3%	-1.1	-3.9
O=C(Nc1nnc(S(=O)(=O)N2CCCCCC2)s1)c1ccccc1F	-0.4%	-0.1	-25.6%	-1.8%&-2.7%	-1.0&0.0	-4.1&-8.9
COc1ccc(OC)c(N/C(N)=N/c2nc(C)cc(C)n2)c1	-7.4%	0.4	8.8%	-1.1%	0.2	-5.4
Cc1cccc(Nc2nc(-c3ccc(F)cc3)cs2)n1	-41.9%[15.4 µM]	4.7	-3.1%	-2.5%	1.9	4.5
Cc1ccc(-n2nc3c(N4CCC(C(=O)NCCC(C)C)CC4)nnc(C)c3c2C)cc1	/	/	/	-8.4%	4.1	33.6
CC(=O)N1c2ccc(S(=O)(=O)N3CCC(C(=O)NC4CCCCC4C)CC3)cc2CC1C (centres undefined)	3.7%	0.4	1.4%	-0.2%	-0.6	-9.9
O=C(Nc1ccc(Br)cc1F)c1cccnc1	-22.0%	-3.1	1.9%	-1.3%	1.9	-11.3
Cc1ccc(NC(=O)c2csnn2)c(C)c1	-43.4%	7.0	2.3%	-0.5%	-0.2	6.0
Cc1ccc(C2=NN(C(=O)CN3CCN(C4CCS(=O)(=O)C4)CC3)C(c3ccco3)C2)cc1 (centres undefined)	-3.5%	/	-6.0%	2.8%	0.1	-8.7
COc1ccc(S(=O)(=O)N(CC(C)C)C2CCS(=O)(=O)C2)cc1OC (centres undefined)	-15.6%[15.4 µM]	/	2.6%	-1.0%	0.4	8.3
CC(C)Nc1ccc(C(CC(N)=O)NC(=O)c2ccccc2)cc1[N+](=O)[O-] (centres undefined)	9.7%	-4.5	10.6%	2.1%	-0.2	-19.0
